Screening data deposited in PubChem by several laboratories.
YopH PTP inh: YopH (Yersinia) phosphatase inhibition; 0.16% of 140,000 active; AID 898; fluorescence Ex485/Em525; inhibition, %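 (about 10 µM by stock and volumes)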;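 active = inhibition of 50% or more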;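 note: controls were vehicle for no effect and minimum signal wells for full effect; inactives centre near -20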
Mtb betalactam: beta-lactam sensitization of Mtb H37Rv; AID 434955; 0.27% of 330,000 active; M. tuberculosis H37Rv growth with meropenem, percent inhibition; hits of this screen are not shown here; inhibition, % at 25 µM;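 active = about 74% or more and at least 40 points above the plate without the antibiotic, then above 30% in a dose series; inconclusive = first-round hits that could not be retested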;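 note: growth measured after seven days incubation then overnight dye step; 0% = bacteria only wells and 100% = bacteria with antibiotic; twin plates without the antibiotic show which effects depend on it; some results filed as inactive read as strong as hits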
RecA intein inh: inhibitors of M. tuberculosis RecA intein splicing; AID 2221; cell-free RecA intein splicing, fluorescence; inhibition, %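 (about 9 µM by stock and volumes)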; 0.75% of 290,000 active; in the data active = inhibition above about 30%; inconclusive = no clear call, values can overlap the other calls;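 note: 0% = vehicle wells and 100% = reference inhibitor control wells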
Target sequence (P9WHJ3 whole entry, looked up): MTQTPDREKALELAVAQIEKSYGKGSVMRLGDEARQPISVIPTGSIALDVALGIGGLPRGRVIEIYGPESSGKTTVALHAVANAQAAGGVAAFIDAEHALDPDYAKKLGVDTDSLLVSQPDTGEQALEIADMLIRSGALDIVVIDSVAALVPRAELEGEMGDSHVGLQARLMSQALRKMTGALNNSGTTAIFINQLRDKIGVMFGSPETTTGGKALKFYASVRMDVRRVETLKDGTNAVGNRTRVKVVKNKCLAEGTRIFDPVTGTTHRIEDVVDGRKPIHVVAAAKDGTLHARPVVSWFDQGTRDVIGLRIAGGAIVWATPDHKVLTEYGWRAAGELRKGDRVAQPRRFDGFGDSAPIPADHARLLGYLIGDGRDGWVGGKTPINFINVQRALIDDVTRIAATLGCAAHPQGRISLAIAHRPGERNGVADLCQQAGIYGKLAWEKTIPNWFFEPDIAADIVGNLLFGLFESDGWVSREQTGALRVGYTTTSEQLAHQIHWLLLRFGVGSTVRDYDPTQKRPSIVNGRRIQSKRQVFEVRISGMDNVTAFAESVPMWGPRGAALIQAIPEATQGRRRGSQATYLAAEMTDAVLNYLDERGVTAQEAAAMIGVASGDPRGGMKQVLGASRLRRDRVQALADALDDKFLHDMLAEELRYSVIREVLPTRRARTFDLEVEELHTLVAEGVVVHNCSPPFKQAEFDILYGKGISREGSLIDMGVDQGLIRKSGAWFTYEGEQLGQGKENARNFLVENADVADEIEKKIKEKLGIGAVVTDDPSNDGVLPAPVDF
Arbovirus anti: antivirals against arbovirus infection. arbovirus infection cell-based antiviral screen. inhibition, % at 10 µM. 0.37% of 200,000 active. AID 1251;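 active = inhibition from about 30%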;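 note: bluetongue infection of BSR cells; cell survival read as ATP light after 72 h; 0% = infected wells without compound and 100% = uninfected wells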
Mtb H37Rv: M. tuberculosis H37Rv growth inhibitors, H37Rv strain (AID 1626); 0.95% of 220,000 active; M. tuberculosis H37Rv growth inhibition; higher % means a stronger effect; inhibition, % at 10 µM; hits with a dose series show IC50 in µM;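 active = confirmed in a dose series; inconclusive = inhibition above 80% but not taken into the dose series; inactive = below 80% or under 30% at every dose of the series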;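 note: bacteria incubated seven days before Alamar blue readout; 0% = bacteria only wells and 100% = bacteria with antibiotic wells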
Arbovirus anti repeat: recorded beside Arbovirus anti, whose call it bears; inhibition, %; measured here: 10K subset replicate screen; many hits read low in the repeat;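 first of two repeat runs on a subset; 0% = infected and 100% = uninfected wells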
Starred values were filed as active, the others as inactive; ? = inconclusive; . = no result given. These rows are one share of the data; count on the stated rates, not on these rows.

The opening five entries, ahead of the listing:
SMILES | YopH PTP inh | Mtb betalactam | RecA intein inh | Arbovirus anti | Mtb H37Rv | others
Cc1c(NS(=O)(=O)c2cc(C(=O)OCC(=O)N3CCC(C)CC3)ccc2Cl)c(=O)n(-c2ccccc2)n1C | . | -6 | -0.4 | 12 | -2%
CNC(=S)N1N=C(c2ccc(Br)cc2)CC1c1ccc(N(C)C)cc1 (stereo not drawn) | . | -3 | 8.5 | 3 | 18%
COC(=O)CSc1nc(C)cc(N2CCOCC2)n1 | . | 0 | 1.1 | 5 | -2%
Cc1ccc(S(=O)(=O)N2CCCCC2)cc1C(=O)NCC1CCCO1 (stereo not drawn) | . | -3 | 0.6 | . | .
O=S(=O)(Nc1cccc2ccccc12)c1ccccc1 | . | -1 | -0.1 | . | 0%

Results (from the top)
SMILES | YopH PTP inh | Mtb betalactam | RecA intein inh | Arbovirus anti | Mtb H37Rv | others
Cc1c(NS(=O)(=O)c2cc(C(=O)OCC(=O)N3CCC(C)CC3)ccc2Cl)c(=O)n(-c2ccccc2)n1C | . | -6 | -0.4 | 12 | -2%
CNC(=S)N1N=C(c2ccc(Br)cc2)CC1c1ccc(N(C)C)cc1 (stereo not drawn) | . | -3 | 8.5 | 3 | 18%
COC(=O)CSc1nc(C)cc(N2CCOCC2)n1 | . | 0 | 1.1 | 5 | -2%
Cc1ccc(S(=O)(=O)N2CCCCC2)cc1C(=O)NCC1CCCO1 (stereo not drawn) | . | -3 | 0.6 | . | .
O=S(=O)(Nc1cccc2ccccc12)c1ccccc1 | . | -1 | -0.1 | . | 0%
COc1cc(NC(=O)c2cccc([N+](=O)[O-])c2C)ccc1NC(=O)c1ccco1 | -23 | 4 | -1.4 | -12 | 4%
CC1(c2ccc(OCC#N)cc2)C=C(c2ccc(OCC#N)cc2)n2nc(C(F)(F)F)nc2N1 (stereo not drawn) | -34 | 85 | 17 | -24 | 55%
CC(C)c1ccc(C(C)NCCS(=O)(=O)c2ccc(Cl)cc2)cc1 (stereo not drawn) | . | ? | 3.4 | . | .
COC(=O)COc1ccc2c(=O)c(Oc3ccccc3)c(C)oc2c1 | -32 | 99 | -1.8 | -3 | 2.1µM*
CCOc1nc(NC(C)C)nc(NC(C)C)n1 | -82 | -9 | . | -4 | -9%
COc1ccc(-c2cc(C(F)(F)F)nc(SCc3cccc(C(=O)O)c3)n2)cc1 | -32 | 15 | . | 23 | 12%
CCc1noc(C)c1C(=O)Nc1sc(C(=O)N(C)C)c(C)c1C#N | . | -8 | 3.7 | . | .
O=C(Nc1cc(Cl)ccc1N1CCCCC1)c1cccs1 | -12 | -2 | 13 | 0 | 9%
O=C(Nc1cc(S(=O)(=O)N2CCOCC2)ccc1N1CCCC1)C1COc2ccccc2O1 (stereo not drawn) | . | -13 | 3.3 | . | -1%
CC(=O)Nc1ccc(C2(c3ccc(NC(C)=O)cc3)NC(=O)c3ccccc32)cc1 | . | -9 | -1.2 | . | .
COc1ccc(C)cc1NS(=O)(=O)c1cn(C)c(=O)n(C)c1=O | -41 | -6 | -1.2 | 4 | -3%
CCOC(=O)c1cnn(-c2cc(C)nc3c(-c4ccccc4)c(C)nn23)c1N | -38 | -1 | 19 | -4 | -2%
CCc1ccc(C2=NNC(=Nc3c(C)n(C)n(-c4ccccc4)c3=O)SC2)cc1 | . | 0 | 2.8 | -10 | 1%
Cc1cc(S(=O)(=O)NCc2ccco2)c(C)cc1Cl | . | -4 | 2.4 | . | .
COc1ccc(NC(=O)c2nnn(Cc3ccc(SC)cc3)c2N)c(OC)c1 | -31 | 2 | -0.5 | -11 | 4% | Arbovirus anti repeat=-9
COC(=O)C(C(=O)OC)=C(/C=C/N(C)C)N(C)C | -41 | 9 | 1.9 | 1 | -5% | Arbovirus anti repeat=-2
Cc1ccc(C(=O)/C=C2\NCCNC2=O)cc1 | -10 | -12 | -0.2 | -3 | 3%
COc1ccccc1NC(=O)C1CCCN(c2ncnc3c2nc2n3CCCCC2)C1 (stereo not drawn) | . | 2 | -1.9 | . | .
CCN1C(=O)CC(NCc2ccc(S(N)(=O)=O)cc2)C1=O (stereo not drawn) | . | -2 | 4.5 | . | -1%
Clc1ccccc1Sc1ccc(-c2ccccn2)s1 | . | 3 | 1.6 | . | -5%
O=C(N/C(=C/c1ccccc1)C(=O)N1CCOCC1)c1ccc([N+](=O)[O-])cc1 | . | 1 | 1.7 | -3 | 2%
Cc1cc(N(C)/N=C/c2ccccc2)nc(-c2ccccc2O)n1 | . | 65 | 0.7 | -3 | 73%
COc1ccccc1N1CCN(C2CCC(C)CC2)CC1 (stereo not drawn) | . | -1 | 1.5 | . | .
CCCCc1nnc(NC(=O)CS(=O)(=O)Cc2ccccc2)s1 | -2 | -12 | 0.0 | 1 | 1%
S=C(NCCc1ccccc1)Nc1nccs1 | . | 97 | 1.3 | . | .
CCc1ccc(/C=C2\SC(=S)N(CCC(=O)Nc3cc(C)on3)C2=O)cc1 | . | -4 | -2.1 | -1 | -7%
O=C(NN/C(=N/S(=O)(=O)c1ccc(Cl)cc1)c1ccccc1)c1ccc(O)cc1 | -26 | 43 | -0.6 | 6 | 76%
Cc1ccc(/C=c2\s/c(=C(/C#N)C(=O)N3CCCC3)n(Cc3ccco3)c2=O)s1 | -15 | 4 | -2.1 | -13 | -3%
Cc1ccc(N(Cc2ccccc2F)S(C)(=O)=O)c(C)c1 | . | 3 | 1.5 | 2 | -22%
O=C1CSC(c2cn(-c3ccccc3)nc2-c2cc3ccccc3oc2=O)N1Cc1ccco1 (stereo not drawn) | -35 | 1 | 10 | -10 | .
Cc1cc(C)n2nc(S(=O)(=O)NC3CCCCC3)nc2n1 | -24 | 2 | 0.8 | -2 | -2% | Arbovirus anti repeat=8
CN(C)CCN(C(=O)c1ccc2c(c1)OCCO2)c1nc2c(Cl)cccc2s1 | . | 0 | 0.7 | . | .
CNC(=O)c1cc(NC(=O)CCn2nc(-c3ccc(C)cc3)c3ccccc3c2=O)ccc1OC | . | -4 | 1.7 | . | 4%
O=C(c1cc(S(=O)(=O)N2CCCCC2)ccc1F)N1CCCCC1 | -23 | 6 | 5.8 | 11 | 1%
COc1ccc(CN(C(=O)c2oc3ccccc3c2C)C2CCS(=O)(=O)C2)cc1OC (stereo not drawn) | -13 | -12 | . | 87* | 1%
Cc1nc2ccccc2n1Cc1ccccc1 | . | 2 | 0.4 | . | .
CC(C)CC(=O)Nc1nnc(S(=O)(=O)N(C)c2ccc(Cl)cc2)s1 | . | 7 | -1.1 | . | .
O=C(O)CCc1nc(-c2ccccc2)no1 | -31 | 6 | -1.1 | 9 | -3%
NC1=NC(=O)/C(=C/c2ccc(Br)cc2)S1 | . | 1 | 9.5 | . | .
CC(CN1CCOCC1)OC(=O)CCc1ccccc1 (stereo not drawn) | . | 0 | 0.5 | 1 | -7%
O=C(c1cc2c(ccc3ccccc32)oc1=O)N1CCCC1 | -16 | -5 | -9.8 | -2 | 1%
CCc1c(C)nc(SCC(=O)NNC(=O)Cc2ccc(OC)cc2)[nH]c1=O | . | -1 | -1.4 | . | 6%
O=C(NCc1ccc2c(c1)OCO2)c1cccc(F)c1 | -26 | 12 | -0.6 | 4 | 12%
Cc1c(C)c2ccc(OC(C)C(=O)NCCc3c[nH]c4ccccc34)cc2oc1=O (stereo not drawn) | . | 1 | 9.4 | . | .
O=C(Cn1c(SCC(=O)N2CCCc3ccccc32)nc2ccccc21)N1CCCC1 | -1 | -1 | 0.5 | 0 | -7%
CCOC(=O)c1cc(-c2ccc(F)cc2)n(CCC(=O)NC2CCN(Cc3ccccc3)CC2)c1C | . | 10 | -1.7 | -12 | -2%
CCOc1ccc(C2c3[nH]c4ccccc4c3C[C@H]3C(=O)N(C4CCN(Cc5ccccc5)CC4)CC(=O)N23)cc1OC (stereo partly drawn) | . | 89 | 3.5 | . | .
CCCCN(CCO)c1ncnc2sc(-c3ccccc3)cc12 | . | 86 | 0.4 | . | .
Cc1onc(-c2ccccc2Cl)c1C(=O)NCc1ccc(F)cc1 | . | 0 | -2.2 | . | .
COc1cc2c(cc1OC)C1(Nc3c-2c(Cc2ccccc2)nn3-c2ccccc2)C(=O)Nc2ccccc21 (stereo not drawn) | -8 | 100 | 35* | 14 | ?
CC(Oc1ccc(C(C)(C)C)cc1)c1ccnc2nc(/N=C/N(C)C)nn12 (stereo not drawn) | 6 | -5 | . | -1 | 3%
CN(C)CCNC(=O)Cn1ccc2cc(S(=O)(=O)N3CCCCC3)ccc21 | . | 17 | -2.4 | . | .
Cc1c(NC(=O)Oc2ccccc2)sc(=S)n1C | -23 | 11 | -4.7 | -2 | -6% | Arbovirus anti repeat=5
CC1(C)CC[C@]2(C)CC[C@]3(C)C4C[C@@H]5OO[C@@]6(O5)C(CCCC6(C)C)[C@]4(C)CC[C@@]3(C)C2C1 (stereo partly drawn) | . | -12 | . | . | -8%
CC(C)C(c1nnnn1Cc1ccco1)N1CCC(C(N)=O)CC1 (stereo not drawn) | -23 | 2 | 2.2 | 7 | -5%

Other results follow:
SMILES | YopH PTP inh | Mtb betalactam | RecA intein inh | Arbovirus anti | Mtb H37Rv | others
COc1ccc(-c2csc(N(CCc3ccc(OC)c(OC)c3)C(=O)COc3ccccc3)n2)cc1 | -9 | 11 | 1.1 | 11 | 4%
OCCC1CN(Cc2cccn2-c2cccnc2)CCN1Cc1ccc(F)cc1 (stereo not drawn) | . | 5 | -0.1 | 4 | -3%
CN(C)CCCC1(O)c2ccccc2CCc2ccccc21 | . | 1 | 1.2 | -8 | -6%
O=C(NC1CCCC1)C(c1ccccn1)N(C(=O)c1csnn1)c1ccccc1Cl (stereo not drawn) | . | -3 | 0.6 | . | .
C=CCNc1nc2c(c(=O)n(C)c(=O)n2C)n1CC(=C)C | . | 2 | 0.5 | -5 | 3% | Arbovirus anti repeat=-1
CN(C)c1ccc(C(CNC(=O)c2ccc(C#N)cc2)c2c[nH]c3ccccc23)cc1 (stereo not drawn) | 7 | 59 | -0.4 | -3 | 28%
CC(=O)N(C1=C(N)C(=O)c2ccccc2C1=O)C(C)C | . | 5 | 12 | 10 | -6%
CC(Oc1ccc(F)cc1)C(=O)NN (stereo not drawn) | -18 | 4 | -0.9 | -5 | 1%
O=C(NCC1CC1)c1onc(CSc2ccccc2)c1C(=O)NCC1CC1 | . | -3 | 2.2 | . | -6%
Cc1cc(NS(=O)(=O)c2ccc(NC(=O)C3CCCCC3)cc2)no1 | . | -2 | -2.3 | . | .
Cc1nn(CCCC(=O)NCc2ccccc2)c(=O)c2nccn12 | . | 7 | 0.0 | . | .
O=C1CN(C(=O)COc2ccccc2F)c2ccccc2N1 | 12 | -6 | 2.4 | -7 | 2%
O=C(CN1CCCC1)N/N=C/c1ccc(-c2cccc(Cl)c2)o1 | -35 | 73 | 4.6 | 1 | 40%
Cn1cnc([N+](=O)[O-])c1Nc1ccc(O)cc1 | -20 | -18 | 14 | -6 | 0%
CSCCC(NS(=O)(=O)c1ccc(Cl)cc1)C(=O)OCC(=O)N(C(C)C)C(C)C (stereo not drawn) | 3 | -1 | . | 3 | 1%
C=CCn1cc(C(=O)OCC)c(=O)c2ccc(F)cc21 | . | 16 | 0.1 | 4 | 3%
c1ccc(-c2ccc(-c3nc(-c4ccncc4)no3)cc2)cc1 | -28 | 20 | 2.9 | 6 | 10% | Arbovirus anti repeat=4
CCc1c(C)sc(NC(=O)c2cccs2)c1C(=O)OC(C)C | -55 | 5 | -20 | 18 | 1% | Arbovirus anti repeat=-10
CC(=O)NC(c1ccccc1)c1c(O)ccc2ccccc12 (stereo not drawn) | . | -3 | -5.9 | 5 | 3%
CC1CCN(C(=O)C2CCN(S(=O)(=O)c3cccnc3)CC2)CC1 | -8 | -1 | 1.5 | 0 | 7%
Cc1cccnc1Nc1nc(-c2ccc(O)c(O)c2)cs1 | -6 | 13 | 8.4 | -14 | -5%
CC(=O)Nc1ccc(OS(=O)(=O)c2ccc(Cl)cc2)cc1 | . | 4 | 4.4 | . | .
COc1ccc2c(c1)C=C(C(=O)OCc1cccnc1)CO2 | . | -1 | -1.2 | 13 | 21%
O=C(CCc1ccccc1)NNC(=O)COc1ccc(Cl)cc1 | . | -6 | -2.0 | . | .
N=c1c[n+](C2CCCCC2)[n-]o1 | . | 2 | 2.8 | 4 | 2%
CS(=O)(=O)Nc1ccc(C(=O)Nc2ccc3c(c2)OCCO3)cc1 | -25 | -4 | -7.6 | 5 | 0%
C=CCn1c2ccccc2c2nnc(SCC(=O)O)nc21 | . | -5 | 2.6 | . | .
